Source: PubChem
Rango dissoc inh – inhibition of RanGTP-driven Rango-importin beta dissociation. actives 0.071% (n = 340,000). Biochemical FRET Rango-importin beta, RanGTP-induced dissociation. Potency, µM (highest dose often 46.1 µM), for the others: at the top dose activity change, negative = inhibition. O95149+P62826; active means falling FRET ratio curve, often poorly fitted, with flat reads before Ran was added; inconclusive means other falling curves, or compound fluorescence or quenching; inactive means flat or rising ratio curve;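 note: potency is the fitted concentration of half-maximal effect; % of control where 0% means no effect; nearly all actives have a fitted effect of over 45% in size; -100% = wells without RanGTP and RCC1; the record marks most hits as doubtful in a second field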
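Compounds sat 5 min at room temperature with 0.1 uM Rango biosensor plus 0.25 uM importin beta, then FRET pre-read. RanGTP-RCC1 (0.6 uM Ran, 2mM GTP, 0.2 uM RCC1) added for 45 min, and the CFP/YFP post-read measured blocked complex dissociation.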
GLA inh pH 4.5 – alpha-galactosidase A (human) inhibition, pH 4.5. P06280. purified enzyme, 4-MU-alpha-Gal fluorescence, pH 4.5. activity change, negative = inhibition, % at 105 µM. 230,000 tested, under 10 active; inconclusive = small, poorly fitted or top-dose-only inhibition, or a rising curve; inactive = flat fitted curve, though single readings scatter; no compound was filed as active;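 note: 0% = full activity with enzyme and -100% = basal without enzyme; dose as in the result columns while the protocol names 77 µM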
Target sequence (P06280 whole entry, looked up): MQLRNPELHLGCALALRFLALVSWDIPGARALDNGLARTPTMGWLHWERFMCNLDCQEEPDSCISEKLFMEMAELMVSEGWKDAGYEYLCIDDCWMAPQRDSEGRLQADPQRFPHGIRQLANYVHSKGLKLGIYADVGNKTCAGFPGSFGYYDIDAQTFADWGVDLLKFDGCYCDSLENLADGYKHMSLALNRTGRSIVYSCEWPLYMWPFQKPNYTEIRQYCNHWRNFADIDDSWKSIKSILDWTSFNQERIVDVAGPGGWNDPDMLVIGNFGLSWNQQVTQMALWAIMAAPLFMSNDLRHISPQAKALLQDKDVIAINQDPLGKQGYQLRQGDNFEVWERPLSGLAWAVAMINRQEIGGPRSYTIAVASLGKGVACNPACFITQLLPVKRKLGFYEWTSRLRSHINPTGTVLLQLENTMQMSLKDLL
Rango complex inh – Rango-importin beta binding inhibition | Rango CFP/YFP FRET sensor + importin beta, 45 min | Potency, µM (highest dose often 92.2 µM), for inactives: top-dose inhibition of complex formation | actives 0.031% (n = 340,000) | AID 540263; active = rising FRET ratio curve, often small or poorly fitted; inconclusive = mostly compound fluorescence or quenching in the first reads; inactive = flat curves in all reads;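 note: potency is the fitted concentration of half-maximal effect; 0% = DMSO wells and 100% = buffer wells lacking importin beta; nearly all actives have a fitted effect of over 15% in size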
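FRET biosensor (snurportin 1 IBB flanked by EYFP and cerulean), 50 nM, with compound 5 min, then 0.125 microM importin beta in PBS, 1 mM DTT, 0.02% Tween-20, 0.1% BSA. CFP/YFP ratio read after 45 min at room temperature; pre-read flags interference.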
miR-21 reporter – miR-21 reporter, rising signal. HeLa miR-21 FLuc reporter, luciferase, 48 h. Potency, µM (titrated, usually from 38.3 µM), for inactives: top-dose reporter change, positive = more light. 340,000 tested, under 10 active. AID 2288; active = well fitted rising curve with a large enough effect; inconclusive = small, poorly fitted or top-dose-only effect; inactive = no such curve, though single readings can be large or run the other way;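 note: % of control where 0% means no effect; miR-21 action dims this reporter so a rising signal means less miR-21 action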
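HeLa miR-21-FLuc reporter line, endogenous miR-21; 2000 cells/well in DMEM/10% FBS; compound titration up to ~40uM final, 48 h, 37 degree Celsius; luciferase detection reagent, 15 min lysis, CCD luminescence.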
The depositor's hits bear a star; ? = inconclusive; . = no result given; & = joins results of further samples.

Values run as follows: Rango dissoc inh, GLA inh pH 4.5, Rango complex inh, miR-21 reporter
O=c1[nH]c(CS(=O)(=O)c2ccccc2)nc2ccccc12
    -10%, -2, -3.9%, 1%
CNc1ccc2nnc(C(F)(F)C(F)(F)C(F)(F)F)n2n1
    7%, -4, -0.8%, -3%
COc1cc2c(cc1[N+](=O)[O-])-c1ccccc1C2
    -1%, ., 5.2%, .
CCOC(=O)/C(C#N)=C1\CC2CCC1(C)C2(C)C (stereo unspecified)
    -4%, 3, 1.8%, 2%
FC(F)(F)c1cccc(CN2CCC(c3cc(-c4cccs4)n[nH]3)CC2)c1
    -14%, -10, -1.0%, 26%
CCOc1ccccc1/C=C(/NC(=O)c1ccccc1)C(=O)N(CC)CC
    9%, 1, 2.8%, -15%
Cc1oc2ccc(OC(=O)c3cccs3)cc2c1C(=O)OC(C)C
    -3%, ., -0.9%, -36%
COc1ccc([N+](=O)[O-])cc1NC(=O)C(C)OC(=O)C1CCC1 (stereo unspecified)
    20%, ., 0.7%, .
Cc1ccc(C)c(S(=O)(=O)N2CCN(C(=O)Cc3ccsc3)CC2)c1
    17%, ., -0.6%, -2%
C/C(=N\NC(=S)NCc1ccccc1)c1cccc(Br)c1
    -15%, 0, -0.5%, -28%
CCOc1cccc(C(=O)Nc2ccc3oc(-c4cccnc4)nc3c2)c1
    7%, 6, 3.3%, -4%&-10%
O=C(COc1ccc(Br)cc1)Nc1ccc(NC(=O)c2ccccc2)cc1
    -4%, ., -2.2%, 0%
Cc1ccc(NC(=O)CN(C)C(=O)c2ccc3[nH]c4c(c3c2)CC(C)CC4)cc1 (stereo unspecified)
    -2%, ., -4.3%, .
COCC(=O)Nc1cc(C)c2c(=O)oc3ccccc3c2n1
    -19%, 1, 0.8%, 1%
O=C1NC(c2cccc(Cl)c2)Oc2ccccc21 (stereo unspecified)
    8%, ., 3.2%, 0%
COc1ccc(OC)c(NC(=O)COC(=O)COc2c(Cl)cc(Cl)c3ccc(C)nc23)c1
    11%, ., -0.1%, .
CC(C)(C)N1C(=O)c2ccc(C(=O)Nc3nccs3)cc2C1=O
    -4%, -7, 1.1%, -34%
O=C(c1ccc(S(=O)(=O)N2CCCC2)cc1)N(c1ccccc1)C1C=CS(=O)(=O)C1 (stereo unspecified)
    ?, ., 1.0%, 5%
Cc1cccc(NC(=O)COC(=O)c2ccccc2-c2nc3ccccc3s2)c1C
    -5%, 5, -2.8%, -6%
CCn1c(C)cc2c(c1=O)C(c1ccncc1)C(C#N)=C(N)O2 (stereo unspecified)
    -2%, -21, 0.4%, -12%
O=C(Cc1ccccc1)N/N=C/c1ccccc1F
    ., 7, ., -40%
O=C(COc1ccc2c(-c3ccccc3)cc(=O)oc2c1)N[C@@H](Cc1c[nH]c2ccc(O)cc12)C(=O)O
    -8%, ., -1.0%, 0%
CCOc1ccccc1N1CCN(C(=O)c2c(-c3c(F)cccc3Cl)noc2C)CC1
    7%, ., -0.8%, .
CCc1nc2ccc(C(=O)N(C)CC(=O)Nc3ccc(F)c(F)c3F)cc2nc1CC
    -1%, ., 0.4%, .
O=C(NCCCN1CCCC1=O)c1cc(-c2cccnc2)nc2ccc(Cl)cc12
    -3%, 3, 3.7%, 9%
CC(C)CNC(=S)NC1CC2CCCC(C1)N2Cc1cccs1 (stereo unspecified)
    -10%, 10, -1.0%, -5%
Cc1cc(NC(=O)c2cc3n(n2)C(C(F)(F)F)CC(c2ccc(Cl)c(Cl)c2)N3)no1 (stereo unspecified)
    -3%, 0, 1.7%, -7%
CC(=O)c1cccc(Nc2nc(-c3ccccc3)cs2)c1
    6%, -5, -4.9%, -44%
COc1ccc(/C(O)=C2\C(=O)C(=O)N(CC3CCCO3)C2c2cc(OC)ccc2OC)cc1 (stereo unspecified)
    7%, -8, -1.0%, 1%
O=C(NCc1ccccc1)/C(=N\O)c1ccccc1
    13%, 6, -0.5%, -33%
CCCNC(=O)C(Cc1cccc(OC)c1)NC(=O)c1ccc(C#N)cc1 (stereo unspecified)
    -13%, ., -4.8%, .
C=CCN(c1ccc(C(=O)NCCc2ccccc2)cc1)S(C)(=O)=O
    10%, 1, 0.6%, -29%
C=CCN(c1ccccc1)S(=O)(=O)c1cccc(C(=O)OCC(=O)NCCOC)c1
    13%, 0, 1.1%, 0%
CCN(CC)CCN1C(=O)C(=O)/C(=C(/O)c2c(C)[nH]c(C(=O)OC)c2C)C1c1cccs1 (stereo unspecified)
    -8%, -4, -0.4%, -6%
Cn1c(=O)c2c(nc(SCC(=O)N3CCc4ccccc43)n2Cc2ccccc2)n(C)c1=O
    ., -4, ., -2%
O=C(c1cccnc1)c1ncc(C(F)(F)F)cc1Cl
    -4%, ., 4.6%, -1%
O=C(Nc1ccc(Cl)cn1)c1cccc(S(=O)(=O)N2CCCCC2)c1
    -13%, ., 1.6%, -2%
Cc1cc(=O)oc(C)c1C(=O)Nc1cccc(F)c1
    0%, -2, -0.8%, -10%
CC(c1cccs1)N(C)Cc1nc(CCc2ccccc2)no1 (stereo unspecified)
    0%, 1, -4.7%, -10%
C=CCc1cccc2cc(C(=O)Nc3ccc(CC(=O)O)cc3)c(=O)oc12
    -2%, -3, -0.2%, 11%
O=C(N/N=C/c1cccc(F)c1)c1cc(-c2ccco2)nc2ccccc12
    -8%, 5, -3.2%, -2%
O=C1NC(Nc2ccccn2)(C(F)(F)F)C(=O)N1c1ccc(F)cc1 (stereo unspecified)
    19%, -6, -4.0%, 1%
COCCNc1nc(C(C)(C)C)nc2c1nnn2Cc1ccccc1Cl
    15%, -6, -1.0%, -5%
COC(=O)c1ccc(NC(=O)C2CCCN2S(=O)(=O)c2ccc(C)cc2)cc1 (stereo unspecified)
    5%, -26, -1.5%, -9%
CC(=O)Nc1ccc(NC(=O)CNC(=O)COc2ccccc2)cc1
    -5%, 1, -0.5%, 4%
O=C(CN1C(=O)NC2(CCc3ccccc32)C1=O)c1ccc(Br)s1 (stereo unspecified)
    14%, ., -0.9%, .
Cn1c(N)c(C(=O)COC(=O)CCc2c[nH]c3ccccc23)c(=O)n(C)c1=O
    18%, 5, 1.7%, -2%
O=C(Nc1ccc2[nH]c(=O)[nH]c2c1)c1ccc(Br)o1
    2%, ., -3.2%, -30%
CCOC(=O)COn1c(=O)c(-c2ccc(OC)cc2)[n+]([O-])c2ccccc21
    -18%, ., ?, -30%
O=C(NCCc1ccccc1)c1ccc2c(c1)S(=O)(=O)c1cc(Cl)ccc1C2=O
    5%, ., -2.1%, .
Cc1cc(Cl)ccc1NC(=O)/C=N/O
    1%, -1, 1.5%, -4%
CCCN(CCC)C(=O)Nc1cc(Cl)ccc1OC
    14%, -11, -4.6%, -1%
O=C1CN(C(=O)COc2ccc(Br)cc2F)c2ccccc2N1
    -7%, -3, 1.4%, -13%
Cc1cc(S(=O)(=O)N2CCN(c3ccc(F)cc3)CC2)c(C)s1
    5%, -9, -2.4%, -7%
COc1c(C)cc(C(=O)C2CCCN(C(=O)c3cc(C)nc(C)n3)C2)cc1C (stereo unspecified)
    12%, 2, 4.3%, -1%
CC(=O)NC1=C(C#N)C(c2ccccc2)c2c(ccc3ccccc23)O1 (stereo unspecified)
    3%, -11, -0.2%, 16%
CCCN1C(=O)/C(=C/C=C2\N(CC)c3ccccc3C2(C)C)SC1=S
    -4%, 2, 7.5%, 3%
COC(=O)Cc1csc(Nc2c(C)n(C)n(-c3ccccc3)c2=O)n1
    2%, -1, -1.2%, -6%
C=CCN1C(=O)C(Cc2ccc(OC)cc2)S/C1=N/N=C/c1ccco1 (stereo unspecified)
    1%, -21, 1.3%, -5%
FC(F)(F)c1cccnc1N1CCN(c2ncnc3nc[nH]c23)CC1
    7%, 1, 1.0%, -11%

Sorted by heavy-atom count (largest number first): part of the list above.
Values run as follows: Rango dissoc inh, GLA inh pH 4.5, Rango complex inh, miR-21 reporter
Cn1c(N)c(C(=O)COC(=O)CCc2c[nH]c3ccccc23)c(=O)n(C)c1=O
    18%, 5, 1.7%, -2%
CCOC(=O)COn1c(=O)c(-c2ccc(OC)cc2)[n+]([O-])c2ccccc21
    -18%, ., ?, -30%
COC(=O)Cc1csc(Nc2c(C)n(C)n(-c3ccccc3)c2=O)n1
    2%, -1, -1.2%, -6%

Next compounds follow:
Values run as follows: Rango dissoc inh, GLA inh pH 4.5, Rango complex inh, miR-21 reporter
O=C(CNC(=O)C12CC3CC(CC(C3)C1)C2)N1CCN(S(=O)(=O)/C=C/c2ccccc2)CC1
    -6%, -5, -0.8%, -6%
Cc1cc2oc(=O)cc(-c3ccccc3)c2c(C)c1-c1ccc(O)cc1
    7%, -25, 1.5%, .
COc1cccc(Oc2ccc(N)cn2)c1
    12%, -9, -9.1%, -4%
CC[C@@H]1CCCCc2ccccc2[C@@H](C(=O)C[C@H](O)CC(C)=O)OC1=O
    19%, ., -1.1%, .
CC(C)CC(=O)NC1(C(F)(F)F)C(=O)Nc2c1c(=O)[nH]c(=O)n2Cc1ccco1 (stereo unspecified)
    -8%, 2, -1.8%, -4%
CCOc1ccccc1NC(=O)C(C)N1C(=O)c2ccccc2S1(=O)=O (stereo unspecified)
    -11%, ., 2.9%, .
CNC(=O)N(C1=NCC(C)(C)S1)c1ccc(F)c(Cl)c1
    4%, -1, 3.0%, 18%
Cc1cc(Br)c(NC(=O)CN(C)CCOc2ccccc2)c(Br)c1
    1%, -2, -1.0%, -9%
O=C(O)/C=C/C(=O)N1CCN(S(=O)(=O)c2cccc(C(F)(F)F)c2)CC1
    -13%, 7, -0.1%, -3%
CC(=O)c1ccc(OCCCC(=O)NNC(=O)c2ccccn2)cc1
    -10%, ., -0.9%, .
CCCCCCCCC(=O)N1CCN(c2cc3c(cc2F)c(=O)c(C(=O)O)cn3CC)CC1
    -8%, ., -2.7%, -1%
O=C(Nc1ccc(N2CCOCC2)c(Cl)c1)C1CCCCC1
    7%, -16, -4.5%, -65%
O=C(c1cc(-c2ccc(F)cc2)on1)N1CCCc2ccccc21
    15%, 4, 0.6%, -33%
Cc1nc2ccccn2c1C(=O)NCC(C)C
    -3%, 8, -0.3%, -7%
CCCCN(C)CCCNC(=O)c1ccc2c(c1)NC(=O)C(N1CCOCC1)S2 (stereo unspecified)
    -4%, -3, -1.4%, -3%
CCOC(=O)C1CCN(C(=O)Cn2nc(C)n3cccc3c2=O)CC1
    4%, ., 4.6%, 0%
COc1ccc(CCNC(=O)CCc2cc(OC)c(OC)c(OC)c2)cc1
    -6%, ., -0.5%, -1%
CC(=O)Nc1ccccc1OC(=O)N1CCOCC1
    4%, 2, 5.5%, -8%
CC(=O)N(CC(=O)Nc1sc(C)c(C)c1C(N)=O)Cc1ccccc1
    10%, 1, -0.1%, -1%
CCN1CCc2nc3ccccc3c(C(=O)Nc3ccc(F)cc3)c2C1
    13%, -12, -0.1%, -13%
Cc1cc(OCC[N+]2(C)CCCCC2)nc2ccccc12
    -5%, 2, 0.7%, -2%
O=C(c1cccc(C(=O)N2CCN(c3ncccn3)CC2)c1)N1CCN(c2ncccn2)CC1
    13%, -1, 1.3%, -1%
O=C1Cc2ccccc2Sc2ccc(Cl)cc21
    3%, 6, -0.4%, -3%
COc1ccc(C(=O)c2ccc([N+](=O)[O-])cc2)cc1S(=O)(=O)N1CCC(C(=O)O)CC1
    -17%, ., 0.4%, -2%
Cc1cc(N2CCN(C)CC2)nc2ccc(NC(=S)N3CCC4(CC3)OCCO4)cc12
    -2%, 3, 0.6%, -6%
CSc1cccc(NC(=S)N(CCC(C)C)C2CCN(C(C)C)CC2)c1
    1%, -6, 0.8%, 5%
C[C@@H]1CN([C@H](C)CO)C(=O)c2cc(NC(=O)Nc3ccc(F)cc3)ccc2O[C@H]1CN(C)C(=O)Nc1ccc(C(F)(F)F)cc1
    -5%, ., -1.7%, .
CC(=O)Nc1cccc(-c2csc(NCc3ccccc3)n2)c1
    31%, -14, -0.3%, -15%
Cc1ccc(-c2cc(-c3nnc(SCC(=O)NCC(C)C)n3N)c3ccccc3n2)cc1
    -9%, 0, 3.9%, -4%
O=C(CCC(=O)OCC(=O)c1ccc(-c2ccccc2)cc1)Nc1cccc(Cl)c1
    -11%, 8, 1.0%, -8%

A portion of the library; the hit share may differ from the screen's.
